Compound activity deposited in PubChem BioAssay by National Center for Advancing Translational Sciences (NCATS).
Sfp PPTase inh: qHTS Assay for Inhibitors of Bacillus subtilis Sfp phosphopantetheinyl transferase (PPTase); AID 1490, 2009; 4'-phosphopantetheinyl transferase ffp (Bacillus subtilis), Q9F4F7; Potency, µM, without a hit: max response, negative = inhibition, usual class: inhibitors; Biochemical Sfp PPTase activity, qHTS; 3.5% of 310,000 active; active = well fitted inhibition curve with a large enough effect; inconclusive = small, poorly fitted or top-dose-only effect, or another doubt; inactive = no such curve, though single readings can be large or run the other way;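 also: the enzyme is Sfp with the accession as filed and its product quenches rhodamine fluorescence; 0% = enzyme reaction without inhibitor and -100% = no enzyme wells; top concentration of the series not given in the record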
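After 15 min at room temperature with compound, 15 nM Sfp received 5 uM rhodamine-CoA plus 12.5 uM BHQ-2-ybbR (50 mM Hepes pH 7.6, 10 mM MgCl2). Rate came from the fluorescence difference over 30 min, ex 525/em 598 nm.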
ClpP mod: qHTS Assay for Activators of ClpP; purified B. subtilis ClpP, FRET peptide cleavage, 20 min; Potency, µM (titrated, usually from 57.5 µM), for inactives: at the top dose activity change, negative = active; 1.9% of 340,000 active; AID 651965, 2013; active = well fitted falling curve with a large enough effect; inconclusive = small, poorly fitted or top-dose-only effect; inactive = no such curve, though single readings can be large or run the other way; also: the source files actives as falling curves though it sought activators and does not explain the sign; nearly all actives have a fitted effect of over 65% in size; many hits overshoot -100%
Target sequence (P80244 whole entry, looked up): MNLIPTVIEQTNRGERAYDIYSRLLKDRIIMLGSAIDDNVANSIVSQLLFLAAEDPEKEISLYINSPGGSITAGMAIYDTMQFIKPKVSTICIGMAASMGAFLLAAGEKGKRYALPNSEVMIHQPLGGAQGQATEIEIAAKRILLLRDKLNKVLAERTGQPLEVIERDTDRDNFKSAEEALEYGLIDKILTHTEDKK
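Buffer: 100 mM Tris/HCl pH8, 100 mM KCl, 0.05% low protease BSA, 2.5% glycerol, 0.01% Tween-20. ClpP 10 microg/mL final; 20 min RT; delta FRET normalized to ADEP and DMSO controls.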
PINK1 modulator: A Quantitative High throughput Screen to Identify Chemical Modulators of PINK1 Expression | 0.2% of 410,000 active | Potency, µM (titrated, usually from 76.6 µM), for inactives: at the top dose activation (PINK1 increase), actives largely listed as activators | PINK1 immunofluorescence, high-content cytometry, 24 h; active = well fitted activation curve with a large enough effect; inconclusive = small, poorly fitted or top-dose-only effect; inactive = flat fitted curve, though single readings scatter; cell line not stated here;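 also: % of control where 0% means no effect; nearly all actives have a fitted effect of over 65% in size; a mitochondrial uncoupler was the plate control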
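Cells are seeded, rested 12 hours, then given compound at five concentrations or DMSO for 24 hours. After fixation, blocking and antibody staining, PINK1 amount and mitochondrial localization are scored; CCCP serves as control.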
Active calls of the source: *; ? = inconclusive; / = no result given. Potency is read from the fitted curve at half-maximal effect. Some of the compounds tested (hit frequency here may not be typical).

Each structure is followed by: PINK1 modulator	Sfp PPTase inh	ClpP mod
c1cncc(CNc2ncnc3ccc(-c4ccc5c(c4)OCO5)cc23)c1
 : 0.7%	/	/
Cc1cnc(SCC2CCCO2)nc1C1CCCN(Cc2nc(-c3ccccc3)cs2)C1 (stereo unspecified)
 : -0.9%	/	/
O=C(NCC1(N2CCCCC2)CCCCC1)c1ccc(-n2cc(NC(=O)c3cccnc3)cn2)cc1
 : 0.4%	/	/
Cc1ncc2c(c1CNC(=O)c1ccc3c(c1)OCO3)CCN(C(=O)C1Cc3ccccc3O1)C2 (stereo unspecified)
 : -0.9%	/	/
COc1ccc(CN2C[C@H](Sc3nc4ccccc4[nH]3)C[C@H]2C(=O)N(C)C)c2ccccc12
 : 0.9%	/	/
COc1ccccc1CNc1ncnc2sc(C(=O)N3CCN(C)CC3)c(C)c12
 : -0.7%	/	/
CCOC(=O)C1CCCN(C(=O)c2cnn(-c3ncc4c(n3)-c3ccccc3CC4)c2C)C1 (stereo unspecified)
 : -0.2%	/	/
FC(F)(F)c1cnc(-c2cc3c(c(OCC4CCCO4)c2)OCCN(Cc2cccn2-c2nccs2)C3)c(Cl)c1 (stereo unspecified)
 : -0.5%	/	/
O=C(NCCc1nnc2n1CCN(Cc1cc3ccccc3o1)CC2)c1ccoc1
 : -0.2%	/	/
COc1cc(=O)n2c(c1C(=O)NCc1ccc3c(c1)OCO3)CCN(C(=O)c1ccc(C)cc1)CC2
 : -0.4%	/	/
Cc1ccccc1C1(CC(=O)N2CC3(C)CC2CC(C)(C)C3)CC(=O)N(Cc2cccnc2)C1=O (stereo unspecified)
 : 0.3%	/	/
COc1ccc(NC(=O)N2CC[C@@]3(CCCN(C(=O)c4csnn4)C3)C2)cc1
 : -0.2%	15%	/
Cc1cccc(C)c1NC(=O)C1(C)CN(S(C)(=O)=O)CC(=O)N1CCc1ccccc1F (stereo unspecified)
 : /	/	-3.4%
COc1ccc(C(C(=O)Nc2ccc(F)cc2)N2CCN(C(=O)c3ccco3)CC2)cc1 (stereo unspecified)
 : /	/	0.1%
CCCCNC(=O)C(NC(=O)Cc1cc(C(F)(F)F)cc(C(F)(F)F)c1)C(=O)c1ccccc1 (stereo unspecified)
 : /	/	-3.5%
COC(=O)C[C@@H]1CC[C@H](NC(=O)c2ccccc2)[C@@H](CO)O1
 : /	/	1.0%
Cc1cc(Br)c2c(c1)[C@](O)(c1cn(C)c3ccccc13)C(=O)N2C
 : /	/	0.4%
COC(=O)CC1N(S(=O)(=O)c2ccc(C)cc2)c2ccccc2C1(C(=O)OC)C(=O)OC (stereo unspecified)
 : /	/	1.0%
C[C@H]1[C@@H](Cc2cc(Cl)cc(Cl)c2)N(c2ccccc2)c2ccccc2CN1Cc1ccccc1
 : /	/	-1.0%
CCc1c(-c2ccc(Cl)cc2)ncn1Cc1cccc(-c2ccccc2)c1
 : /	/	-18%
CCC(C(=O)NC(C)(C)C)n1c(C(c2ccccc2)c2ccccc2)nc2ccccc21 (stereo unspecified)
 : /	/	-1.2%
O=C1Nc2ccccc2-n2nnnc2C1N1CCN(c2ccc(C(F)(F)F)cc2[N+](=O)[O-])CC1 (stereo unspecified)
 : /	/	-0.1%
COCCCNC(=O)C[C@@H]1C[C@@]2(C(=O)OC)CC(C)(C)CC=C2N(Cc2ccccc2)C1=O
 : /	/	-1.2%
O=C(NCC[C@H]1CC[C@@H](NC(=O)C2CCC2)[C@@H](CO)O1)c1cc(Cl)cc(Cl)c1
 : /	/	0.4%
Cc1cccc(C)c1NC(=O)C1(C)CN(S(C)(=O)=O)CC(=O)N1CCCN1CCOCC1 (stereo unspecified)
 : /	/	-3.5%
C=CCOC(=O)Nc1nc(CCNC(=O)OCc2ccccc2)c(C(=O)O)s1
 : /	/	-1.6%
O=[N+]([O-])c1ccc2[nH]ccc2c1
 : /	/	-0.2%
O=C(Nc1ccc(F)cc1)C(c1cccc(F)c1)N1CCN(c2ccncc2)CC1 (stereo unspecified)
 : /	/	1.8%
COC(=O)C[C@@H]1CC[C@H](NC(=O)Nc2ccc(F)cc2)[C@@H](CO)O1
 : /	/	-0.9%
O=C(NCc1ccccc1)C(c1ccccc1)n1c(=O)c(-c2ccco2)nc2ccccc21 (stereo unspecified)
 : /	/	4.1%

(cont.)
Each structure is followed by: PINK1 modulator	Sfp PPTase inh	ClpP mod
COC(=O)C[C@H]1CC[C@@H](NC(=O)Nc2ccc3c(c2)OCO3)[C@@H](CO)O1
 : /	/	-2.9%
COC(=O)C1(C(=O)OC)Cc2ccccc2N(S(=O)(=O)c2ccc(C)cc2)C1CC(C)=O (stereo unspecified)
 : /	/	-2.6%
COC(=O)[C@@]12C[C@@H](CC(=O)NCc3cccc(C(F)(F)F)c3)C(=O)N(Cc3ccccc3)C1=CCC(C)(C)C2
 : /	/	1.7%
CCCCNC(=O)C1C(c2ccc(OC)cc2)=Nc2ccccc2N1C(=O)c1cccnc1 (stereo unspecified)
 : /	/	-2.4%
CN1CCN(C(=O)C[C@@H]2CC[C@@H]3[C@H](COC[C@@H](O)CN3Cc3cccc(Cl)c3)O2)CC1
 : /	/	1.4%
CSCCC(C(=O)NC(C)(C)C)n1c(-c2ccccc2)nc2ccccc21 (stereo unspecified)
 : /	/	-8.0%
COC(=O)C[C@H]1CC[C@@H](NC(=O)Nc2ccc(C(F)(F)F)cc2)[C@@H](CO)O1
 : /	/	-0.2%
CC(C)(C)NC(=O)C(C1CC1)n1c(=O)c(-c2ccco2)nc2ccccc21 (stereo unspecified)
 : /	/	4.0%
COC(=O)C[C@@H]1CC[C@@H](NC(=O)c2ccccc2F)[C@@H](CO)O1
 : /	/	-1.4%
COc1cccc(C(C(=O)NC2CCCC2)N2CCN(c3cc(C)ccc3C)CC2)c1OC (stereo unspecified)
 : /	/	-2.3%
CC(C)NC(=O)C1C(c2ccc(C(F)(F)F)cc2)=Nc2ccccc2N1C(=O)c1cccc2ccccc12 (stereo unspecified)
 : /	/	-28%
CCC(C(=O)NC(C)(C)C)n1c(-c2ccccc2)nc2ccccc21 (stereo unspecified)
 : /	/	-23%
COc1ccc(NC(=O)C(c2ccc(C(F)(F)F)cc2)n2c(=O)c(-c3cc4ccccc4[nH]3)nc3ccccc32)cc1 (stereo unspecified)
 : /	/	-28%
COc1ccc(C2=Nc3ccccc3N(C(=O)c3ccc4c(c3)OCO4)C2C(=O)NCc2ccccc2)cc1 (stereo unspecified)
 : /	/	4.7%
Cc1cccc(C)c1NC(=O)C(c1cccc2ccccc12)n1c(=O)c(-c2cc3ccccc3[nH]2)nc2ccccc21 (stereo unspecified)
 : /	/	54%
COC(=O)[C@@]12C[C@@H](CC(=O)NCC34CC5CC(CC(C5)C3)C4)C(=O)N(Cc3ccccc3)C1=CCC(C)(C)C2
 : /	/	-1.1%
COP(=O)(OC)OC(C(=O)c1ccccc1)c1ccccc1 (stereo unspecified)
 : /	/	0.8%
CCCCNC(=O)c1nc(-c2ccc(C(F)(F)F)cc2)oc1-c1ccccc1
 : /	/	?
CC1(C(=O)NCc2ccccc2)CN(S(C)(=O)=O)CC(=O)N1Cc1cccc(F)c1 (stereo unspecified)
 : /	/	0.5%
CC(C)NC(=O)C1(C)CN(S(C)(=O)=O)CC(=O)N1Cc1cccs1 (stereo unspecified)
 : /	/	1.1%
O=C(NCc1ccccc1)C(c1ccco1)N1CCN(c2ccccc2F)CC1 (stereo unspecified)
 : /	/	-2.4%
COC(=O)C[C@H]1CC[C@@H](NC(=O)Nc2c(C)noc2C)[C@@H](CO)O1
 : /	/	0.4%
O=C(N[C@@H]1CC[C@H](CCn2cc(-c3ccccn3)nn2)O[C@@H]1CO)c1ccncc1
 : /	/	-1.0%
CN1C(=O)C(c2cn(C)c3ccccc23)(c2cn(C)c3ccccc23)c2cc(F)ccc21
 : /	/	-0.8%
CCc1c(-c2cccc(Cl)c2)ncn1Cc1cccc(-c2ccccc2)c1
 : /	/	-15%
COC(=O)C[C@@H]1C=C[C@H](NS(=O)(=O)c2cccc(F)c2)[C@@H](CO)O1
 : /	/	-0.5%
COc1ccc(C(C(=O)NCc2ccccc2)n2c(=O)c(-c3ccco3)nc3ccccc32)cc1 (stereo unspecified)
 : /	/	4.0%
COc1ccc(CCC(=O)N2c3ccccc3N=C(c3ccc(C(F)(F)F)cc3)C2C(=O)NC(C)C)cc1 (stereo unspecified)
 : /	/	-29%
Nc1sc(-c2ccccc2)cc1C(=O)NCCc1c[nH]c2ccccc12
 : /	/	?
CC(C)(C)N1C(=O)c2ccccc2NC(=O)C1C(=O)Nc1ccc(N2CCOCC2)cc1 (stereo unspecified)
 : /	/	-1.9%

Ordered by heavy-atom count (lowest first): part of the list above.
Each structure is followed by: PINK1 modulator	Sfp PPTase inh	ClpP mod
COC(=O)C[C@@H]1CC[C@@H](NC(=O)c2ccccc2F)[C@@H](CO)O1
 : /	/	-1.4%
CC(C)NC(=O)C1(C)CN(S(C)(=O)=O)CC(=O)N1Cc1cccs1 (stereo unspecified)
 : /	/	1.1%
CN1C(=O)C(c2cn(C)c3ccccc23)(c2cn(C)c3ccccc23)c2cc(F)ccc21
 : /	/	-0.8%
Cc1cccc(C)c1NC(=O)C(c1cccc2ccccc12)n1c(=O)c(-c2cc3ccccc3[nH]2)nc2ccccc21 (stereo unspecified)
 : /	/	54%

Next entries follow.
Each structure is followed by: PINK1 modulator	Sfp PPTase inh	ClpP mod
O=C1Nc2ccccc2-c2nnnn2C1N1CCC(Cc2ccccc2)CC1 (stereo unspecified)
 : /	/	-3.9%
Cc1cccc(C)c1NC(=O)C(C1CC1)n1c(-c2ccc(=O)[nH]c2)nc2ccccc21 (stereo unspecified)
 : /	/	-5.1%
O=C(NC1CCCC1)N[C@@H]1CC[C@@H](CC(=O)N2CCOCC2)O[C@@H]1CO
 : /	/	0.2%
N#Cc1cccc(C(=O)C(=O)N2CCCN(Cc3ccc(F)cc3)CC2)c1
 : /	/	-3.4%
Cc1cc2c(cc1C)-n1nnnc1C(N1CCN(c3ncccc3C#N)CC1)C(=O)N2 (stereo unspecified)
 : /	/	-15%
CSCc1cc(C(=O)NC2CC2)c(N)s1
 : /	/	-18%
CCC(=O)N[C@@H]1C=C[C@@H](CC(=O)NCc2ccccc2F)O[C@@H]1CO
 : /	/	0.0%
CCOC(=O)CC1(CCc2ccccc2)Oc2ccccc2O1
 : /	/	0.6%
COC(=O)C1=CN(c2ccc(C(C)(C)C)cc2)C(N)=C(C#N)C1c1ccc(OC)cc1 (stereo unspecified)
 : /	/	-11%
CC(C)NC(=O)N[C@H]1CC[C@H](CC(=O)NCc2ccc(Oc3ccccc3)cc2)O[C@@H]1CO
 : /	/	-5.7%
Cc1ccc(S(=O)(=O)Nc2ccccc2O)cc1
 : /	/	-3.2%
Cc1ccc(S(=O)(=O)N2[C@@H](Cc3ccccc3)CO[C@H]2CC(=O)c2cccc3ccccc23)cc1
 : /	/	-3.1%
CCOC(=O)C(Cc1ccccc1)C1(C)Oc2ccccc2O1 (stereo unspecified)
 : /	/	-1.9%
COC(=O)C1=CN(c2cccc(OCc3ccccc3)c2)C(N)=C(C#N)C1c1cccc(F)c1 (stereo unspecified)
 : /	/	-16%
CC(C)c1cc(Cn2c3ccccc3c(=O)n2C(C)Cn2cc(COc3ccccc3)nn2)on1 (stereo unspecified)
 : /	/	4.5%
CCCCNC(=O)c1nc(C2CCNCC2)oc1-c1cccc(C(F)(F)F)c1
 : /	/	1.7%
O=C(C(O)c1ccccc1)N1CCN(S(=O)(=O)c2ccc(C(F)(F)F)cc2)CC1 (stereo unspecified)
 : /	/	0.3%
Cc1ccc(S(=O)(=O)N2[C@H](CC(=O)c3cccc4ccccc34)OC[C@@H]2C)cc1
 : /	/	2.1%
Cc1cccc(C)c1NC(=O)C(C1CC1)n1c(=O)c(-c2cc3ccccc3[nH]2)nc2ccccc21 (stereo unspecified)
 : /	/	4.4%

Some of the entries so far, tab-delimited:
SMILES	PINK1 modulator	Sfp PPTase inh	ClpP mod
CC(C)c1cc(Cn2c3ccccc3c(=O)n2C(C)Cn2cc(COc3ccccc3)nn2)on1 (stereo unspecified)	/	/	4.5%
CCCCNC(=O)c1nc(C2CCNCC2)oc1-c1cccc(C(F)(F)F)c1	/	/	1.7%
